Screening results deposited in PubChem by Center for Chemical Genomics, University of Michigan.
CDC25B-CDK2 inh – human CDC25B-CDK2/CyclinA binding inhibition | P30305+P24941 | HTRF CDC25B-CDK2/CyclinA binding, anti-His/anti-Flag; active compounds read high | z-score (concentration not given with the values) | actives 0.72% (n = 94,000) | AID 1259370;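 further: score is relative to mean and SD of negative controls; strong numbers were not always called active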
TAR Tat displ – HIV-1 TAR-Tat binding disruption | actives 0.6% (n = 100,000) | HIV-1 TAR RNA, Tat peptide displacement FRET; active compounds read high | z-score (test concentration not listed);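 further: score is relative to mean and SD of negative controls; some compounds called inactive have numbers as strong as hits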
The depositor's hits bear a star; nt = not tested or not shown.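 How the source made its calls: active means z-score from 3 up in half or more of its runs; inactive means the rest.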

SMILES | CDC25B-CDK2 inh | TAR Tat displ
CC(C)OCCCN[C@H]1CS(=O)(=O)C[C@@H]1S(=O)(=O)c1ccc(F)cc1 | -0.67 | 0.51
Cc1ccc(C)c(S(=O)(=O)n2nc(C)c(S(=O)(=O)N3CCC(C)CC3)c2C)c1 | nt | 0.76
Cc1cc(NC(=O)c2cc(C(C)(C)C)oc2C)nc(C)n1 | -1.9 | nt
CCOCCCNC(=O)c1sc(-n2cccc2)nc1C | -0.67 | 0.78
CCCCNC(=O)C1CCN(c2nnc(N3CCCC3=O)s2)CC1 | nt | 2.3
CCN(CC)C(=O)CCC(=O)N1CCCn2nc(-c3cccn3C)cc21 | nt | -0.4
Cc1ccc(-c2c(Nc3cc(C)cc(C)c3)c(=O)c2=O)cc1 | nt | 1.3
Cc1ccc(-n2ncc3c(NCc4ccccc4)ncnc32)cc1 | -8.1 | nt
CCOC(=O)C1=C(C)N(c2ccc(C)c(C)c2)C(=O)C1 | -2.7 | 0.88
O=C(CCS(=O)(=O)c1cc(Br)cc2c1N(C(=O)C1CC1)CC2)NCC1CCCO1 (configuration not stated) | -0.9 | nt
O=C(CC1C(=O)N(c2ccccc2)C(=O)N1CCc1cccs1)Nc1ccc(Cl)cc1 (configuration not stated) | 0.7 | nt
CCc1nn2c(=O)cc(COC(=O)c3cccc(C)c3)nc2s1 | nt | 0.35
CC(=O)Nc1ccccc1OCCN(Cc1ccccc1)C(=O)c1ccc(Cl)cc1 | -2 | nt
CCn1cc(S(=O)(=O)c2ccc(OC)cc2)c(=O)c2cc(F)c(N3CC(C)CC(C)C3)cc21 (configuration not stated) | nt | 0.04
CCc1cc(C(=O)NCCN2CCOCC2)no1 | -1.4 | 0.3

Sorted by length of the SMILES (descending): 12 of the compounds above.
SMILES | CDC25B-CDK2 inh | TAR Tat displ
CCn1cc(S(=O)(=O)c2ccc(OC)cc2)c(=O)c2cc(F)c(N3CC(C)CC(C)C3)cc21 (configuration not stated) | nt | 0.04
Cc1ccc(C)c(S(=O)(=O)n2nc(C)c(S(=O)(=O)N3CCC(C)CC3)c2C)c1 | nt | 0.76
O=C(CCS(=O)(=O)c1cc(Br)cc2c1N(C(=O)C1CC1)CC2)NCC1CCCO1 (configuration not stated) | -0.9 | nt
O=C(CC1C(=O)N(c2ccccc2)C(=O)N1CCc1cccs1)Nc1ccc(Cl)cc1 (configuration not stated) | 0.7 | nt
CC(=O)Nc1ccccc1OCCN(Cc1ccccc1)C(=O)c1ccc(Cl)cc1 | -2 | nt
CCN(CC)C(=O)CCC(=O)N1CCCn2nc(-c3cccn3C)cc21 | nt | -0.4
Cc1ccc(-c2c(Nc3cc(C)cc(C)c3)c(=O)c2=O)cc1 | nt | 1.3
CCc1nn2c(=O)cc(COC(=O)c3cccc(C)c3)nc2s1 | nt | 0.35
CCCCNC(=O)C1CCN(c2nnc(N3CCCC3=O)s2)CC1 | nt | 2.3
Cc1ccc(-n2ncc3c(NCc4ccccc4)ncnc32)cc1 | -8.1 | nt
CCOCCCNC(=O)c1sc(-n2cccc2)nc1C | -0.67 | 0.78
CCc1cc(C(=O)NCCN2CCOCC2)no1 | -1.4 | 0.3

More entries follow:
SMILES | CDC25B-CDK2 inh | TAR Tat displ
C=CCOC(=O)C1=C(C)Nc2[nH]c(=O)[nH]c(=O)c2C1c1ccc(CC)cc1 (configuration not stated) | -1.7 | nt
COc1ccc(-n2c(SCC(=O)N3CCc4ccccc43)nc3c(c2=O)SCC3)cc1 | -0.77 | -0.01
CCOC(=O)CN1C(C(=O)c2ccccc2)=C(OC(=O)c2ccco2)c2ccccc2S1(=O)=O | 0.15 | -1.4
COc1cccc(Nc2c(S(=O)(=O)c3ccccc3)cnc3ccc(OC)cc23)c1 | -0.53 | 1.1
CCOC(=O)c1cnc2c(ccc3[nH]snc32)c1=O | -0.74 | 0.95
CCCc1nc2nc(C)c(NS(=O)(=O)c3ccc(C4CCCCC4)cc3)c(=O)n2[nH]1 | -1.2 | 0.81
CCOC(=O)c1c(C)n(C)c2ccc(OCCN(C)C)cc12 | -0.21 | 1.9
Cc1ccccc1CSc1nc(=O)c2c(n1C)NC(=O)CC2c1cccc(O)c1 (configuration not stated) | 2.6 | 1.6
COc1ccc(-c2csc3c(=O)[nH]cnc23)cc1 | 0.66 | -0.02
CC(=O)N1CCC2(CC1)OC(=O)C(C)=C2C(=O)NCCCOC(C)C | nt | 1.3
O=C(Nc1ccc(Cl)cc1)NC1CCCCC1 | -1.8 | nt
Cc1ccc(N2C(=O)NC(=O)/C(=C/c3cc(C)n(-c4ccc(-c5ccccc5)cc4)c3C)C2=O)cc1 | -5 | nt
O=C(C1=C(O)C(=O)N(CCCn2ccnc2)C1c1ccc(Cl)cc1)c1ccco1 (configuration not stated) | -3.7 | -1.1
COc1ccc(NC(=O)C(C)Oc2ccc(Oc3ccc(C(F)(F)F)cc3)cc2)cc1 (configuration not stated) | -1.1 | nt
Cn1ccc2cc(S(=O)(=O)N3CCN(C(=O)NCc4ccco4)CC3)ccc21 | nt | 0.88
CCOC(=O)CSc1nnc(-c2ccc(Br)cc2)o1 | -0.44 | 2.1
O=c1ccc(-c2ccc(S(=O)(=O)NCC3CCN(Cc4ccc(Cl)cc4)CC3)s2)n[nH]1 | nt | -0.43
CC1CCN(C(=O)c2[nH]nc3c2CCc2ccccc2-3)CC1 | nt | -0.08
CCOCCn1c(CN2CCN(C(=O)c3ccco3)CC2)nc2c1c(=O)n(C)c(=O)n2C | -0.75 | nt
Clc1ccc(-c2noc3ncnc(NC4CCCCC4)c23)cc1 | -2.2 | 0.16
O=C(Nc1cccc(F)c1)C1CCC(CNc2c(N3CCCC3)c(=O)c2=O)CC1 (configuration not stated) | -2.6 | 3.3
COc1ccc(OC)c(NC(=O)[C@H]2CC=CC[C@H]2C(=O)O)c1 | -2.2 | -0.02
Cc1cc(C)c(S(=O)(=O)N2CCN(c3cc(N4CCCCC4)nc(C)n3)CC2)c(C)c1 | -0.16 | 1.4
O=C(c1ccccc1)C1CN(C2CCS(=O)(=O)C2)CCC1(O)c1ccccc1 (configuration not stated) | 0.78 | 0.33
CCN(CC)c1ccc2nnc(CCC(=O)Nc3ccc4c(c3)OCCO4)n2n1 | nt | -0.48
O=C(Cn1c(=O)n(Cc2ccccn2)c(=O)c2sc3ccccc3c21)NCCC1=CCCCC1 | -2.7 | nt
Cc1ccc(C)c(NS(=O)(=O)c2ccc(-c3ccno3)s2)c1 | nt | -0.1
CCCc1cc(=O)n2nc(N3CCC(C(=O)Nc4ccc(F)cc4F)CC3)sc2n1 | 0.9 | 1.2
CCCCOC(=O)C1=C(C)NC2=C(C(=O)CCC2)C1c1cc2c(cc1Cl)OCO2 (configuration not stated) | -1.2 | 0.42
CC(C)Cn1cc(NC(=O)NCCN2CCOCC2)c2ccccc2c1=O | nt | 1.2
Cc1ccc(-c2n[nH]c(=O)c(Cc3ccc(Cl)cc3)n2)cc1 | nt | 0.76
CC(CNS(=O)(=O)c1ccc(-c2cc(C(F)(F)F)on2)s1)c1ccccc1 (configuration not stated) | nt | 0.9
Cc1cc(C)c(OCC(=O)N2N=C(CC(C)C)CC2(O)C(F)(F)F)c(C)c1 (configuration not stated) | 0.96 | nt
Cc1ccc(-c2nc3cccnc3n2CCCNS(=O)(=O)c2ccc(Br)cc2)cc1 | nt | -0.74
CC(=O)c1c(C)n(S(=O)(=O)c2ccccc2)c2ccc(NS(=O)(=O)c3ccccc3)cc12 | 0.69 | nt
Cc1cc(S(=O)(=O)N2CCN=C2c2ccccc2)ccc1F | -0.01 | 1.5
CCOC(=O)N1CCC(Nc2nc3ccccc3c3nnc(CC)n23)CC1 | nt | 3
Cc1cccc(C2CN(C)CCc3c2cc(O)c(O)c3Cl)c1 (configuration not stated) | -0.6 | nt
CCCOC(=O)C1=C(C)NC2=C(C(=O)C(C(=O)OC)C(C)C2)C1c1ccc(F)cc1 (configuration not stated) | -0.14 | 1.1
Cc1nc(N2CCOCC2)c2c(c1[N+](=O)[O-])C(=O)NC2=O | -2.5 | nt
O=C(N1CCc2ccccc21)C1(c2cccs2)CCOCC1 | nt | 0.94
O=C(NCc1cccnc1)c1cnn2c(C(F)(F)F)cc(-c3ccc(F)cc3)nc12 | nt | 0.63
COc1cc(/C=c2\sc3nc4c(C)cccc4n3c2=O)ccc1O | -1.8 | nt
Cc1nn(C(C)C(=O)NCc2ccccn2)c(=O)c2nn(-c3ccccc3)c(C)c12 (configuration not stated) | nt | -4.2
CCOC(=O)N1CCN(Cc2nc3c(c(=O)[nH]c(=O)n3C)n2CC(C)C)CC1 | -0.36 | 1.7
CC(C)Sc1nc(=O)n(C2CCCCC2)c2c1CCC2 | -1.9 | 0.28
CCC(=O)N1N=C2CC(C)(C)OCC2C1c1ccccc1 (configuration not stated) | -0.65 | 0.93
FC(F)(F)c1cccc(-c2noc(-c3cccc(Br)c3)n2)c1 | -1.3 | nt
O=C(CCS(=O)(=O)c1ccc(Cl)cc1)Nc1nc(-c2nc3ccccc3s2)cs1 | nt | -2.7
COc1ccc(C2C(C(=O)OC(C)C)C(=O)CC(C)(O)C2C(=O)OC(C)C)cc1OC (configuration not stated) | -1 | 0.93
O=C(NCc1ccco1)C1c2ccccc2Oc2ccccc21 | 0.59 | -2
CCn1c2ccccc2c2nnc(NCc3ccccc3Cl)nc21 | -1.2 | -0.06
CCC(C(=O)NC(C)c1ccc2c(c1)OCCO2)n1ncn2c(cc3occc32)c1=O (configuration not stated) | -0.06 | 0.79
COc1ccc(OC)c(-c2noc(CSc3nnc(C)n3-c3ccc(F)cc3)n2)c1 | 0.83 | 1.4
CC1CCCCN1CCCNC(=O)C1CCN(c2ncnc3c2nc2n3CCCCC2)CC1 (configuration not stated) | nt | 2.5
CCCN1C(=O)C2(/C(=C(/O)c3ccc(OC)cc3)C(=O)C(=O)N2CCCN(C)C)c2ccccc21 (configuration not stated) | 0.64 | 0.08
COc1ccc(C2c3sc(=O)[nH]c3SCC2C#N)cc1 (configuration not stated) | -1.5 | nt
Cc1ccc(-n2ccnc(SCc3ccc(F)cc3)c2=O)cc1C | nt | 1.2
O=C(NC(c1ccccc1)c1ccccc1)c1cc2cc([N+](=O)[O-])ccc2oc1=O | -2.1 | nt
COC(=O)c1ccc(C2C(C(=O)c3cc4ccccc4o3)=C(O)C(=O)N2CCN(C)C)cc1 (configuration not stated) | -0.37 | 0.11
Next structures follow:
SMILES | CDC25B-CDK2 inh | TAR Tat displ
COc1ccc(Br)cc1C1CC(=O)N2CN(c3ccc(F)cc3)CSC2=C1C#N (configuration not stated) | 4.4* | -4
CC(=O)N1N=C(CSc2nnc(-c3ccccc3)n2-c2ccccc2)OC1c1ccc(C)o1 (configuration not stated) | nt | 0.39
COC(=O)c1sc(C(C)(C)C)cc1CSc1ccccn1 | -0.59 | nt
Cc1ccc(-c2nnc(N3CCCCC3)c3ccccc23)cc1S(=O)(=O)N(C)C | 0.68 | 0.17
O=c1[nH]c2ccc(S(=O)(=O)N3CCN(C4CCCCC4)CC3)cc2[nH]c1=O | -0.55 | -1.2
N#Cc1cnc(Nc2cccc(C(F)(F)F)c2)nc1N | 0.55 | nt
COc1ccc(NC(=O)N(Cc2c[nH]c3ccccc23)C2CCCCC2)c(OC)c1 | -1.7 | nt
C#CC(CC)(CC)N=Cc1cc(Br)ccc1OCC | -0.47 | nt
O=C(C1CC1)N1CCc2ccccc21 | -0.43 | 1.5
O=C(NCC1CCCO1)c1nc(CS(=O)(=O)c2ccc(Cl)cc2)no1 (configuration not stated) | nt | 0.35
COC(=O)C(NC(=O)CCc1c(C)nc2ncnn2c1C)C(C)C (configuration not stated) | -0.14 | -0.63
Cn1c(=O)c2c(nc3n2CC(c2ccccc2)=NN3CCO)n(C)c1=O | -1.6 | nt
CCCOCCOC(=O)C1=C(C)NC2=C(C(=O)CC(C)(C)C2)C1c1ccccc1Cl (configuration not stated) | 0.24 | -0.08
COc1cc(OC)cc(C(=O)Nc2nc3c(s2)Cc2c(Br)ccc(OC)c2-3)c1 | -2.8 | -0.17
CC(C)Cn1cc(NC(=O)NCc2ccc3c(c2)OCO3)c2ccccc2c1=O | nt | -0.03
COC(=O)c1cc2sc(Cl)cc2n1CC(=O)NCC1CCCO1 (configuration not stated) | -0.44 | nt
CC(=O)N/C(=C\C=C\c1ccccc1)C(=O)O | -2.4 | nt
Cc1cccc(OCCSc2nc(-c3ccc(F)cc3)nc3cc(=O)[nH]n23)c1 | nt | 0.36
O=C(NOc1ccc([N+](=O)[O-])cc1[N+](=O)[O-])c1cccs1 | -0.59 | nt
CCOC(=O)C1CN(c2ccc(C)cc2)CC1=O (configuration not stated) | -3.1 | 1.4
Cc1cc(C)c(-c2c(N3CCCC4CCCCC43)c(=O)c2=O)cc1C (configuration not stated) | nt | -0.55
COC(=O)c1cc(Nc2nc(C)nc3sc4c(c23)CCC4)cc(C(=O)OC)c1 | -1.8 | nt
Cc1ncc(-c2ccc(C)c(S(=O)(=O)N3CCN(c4ccccc4)CC3)c2)o1 | nt | 1.4
COCCc1nn2c(=O)cc(COC(=O)c3ccc(F)cc3)nc2s1 | nt | 1.6
COc1ccc(CCN[C@H]2CS(=O)(=O)C[C@@H]2S(=O)(=O)c2ccc(C)cc2)cc1OC | -1.3 | 0.94
O=C1N(Cc2ccccc2F)C2CS(=O)(=O)CC2N1c1ccc(F)cc1 (configuration not stated) | nt | -0.41
O=C(NCc1ccc(F)cc1)N1CCC2(CC1)Nc1ccccc1-n1cccc12 | nt | 0.45
Cc1noc(-c2ccc(C)c(S(=O)(=O)Nc3ccc(F)cc3)c2)n1 | nt | 0.8
CCCCC(=O)Nc1c2c(nc3c1CCC3)CCCC2 | 0.23 | nt
O=C1NC(=O)c2cc(Cl)c(Cl)cc21 | 0.19 | nt
